# Lassa entry inh = Lassa virus entry inhibition; hit rate 1.2% among 300,000; Potency, µM (doses to about 37.9 µM), inactives show at the highest dose activity change, negative = inhibition, most hits filed as inhibitors; Lassa virus pseudotype entry inhibition, cell reporter; control for the full effect not named in the record; active means well fitted inhibition curve with a large enough effect; inconclusive means small, poorly fitted or top-dose-only effect, or effect the other way; inactive means flat fitted curve, though single readings scatter; tested in HEK293 cells; further: on the % scale 0 is the no-effect control and ±100 the full control effect; nearly all actives have a fitted effect of over 50% in size; luciferase read-out
# 2A StopGo = FMDV 2A StopGo reporter, luciferase signal | human cells with a luciferase reporter of 2A StopGo recoding; control for the full effect not named in the record | Potency, µM (highest dose often 57.9 µM), without a hit: at the top dose signal change, negative = less light | hit rate 1.2% among 410,000; active = well fitted falling curve with a large enough effect; inconclusive = small, poorly fitted or top-dose-only effect; inactive = no such curve, though single readings can be large or run the other way; tested in HEK293T cells; further: on the % scale 0 is the no-effect control and ±100 the full control effect; nearly all actives have a fitted effect of over 45% in size; luciferase light after 4 h
# RE007 growth inh = less growth of the S. pombe RE007 Vpr strain | S. pombe RE007 Vpr strain, BacTiter-Glo ATP luminescence, 24 h; control for the full effect not named in the record | Potency, µM (highest dose often 92.2 µM), for inactives: top-dose activity change, negative = less growth | hit rate 0.21% among 360,000 | AID 651644; active = well fitted falling curve with a large enough effect; inconclusive = small, poorly fitted or top-dose-only effect; inactive = no such curve, though single readings can be large or run the other way;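 further: on the % scale 0 is the no-effect control and ±100 the full control effect; nearly all actives have a fitted effect of over 50% in size; the assay follows cell death caused by Vpr and the record does not say whether a fall means rescue or toxicity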
#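 Fission yeast strain RE007, carrying one chromosomally integrated HIV-1 vpr copy, was seeded at OD 0.01 in PMG+AL medium with 23 nL pinned compound. After 24 h at 30 °C and 99% humidity, viability was read by BacTiter-Glo luminescence.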
# Cruzain noTriton = inhibitors of Trypanosoma cruzi cruzain without detergent. hit rate 2.3% among 200,000. AID 1476. purified cruzain, Z-FR-AMC fluorescence, no detergent. Potency, µM, for the others: max response, negative = inhibition, actives largely listed as inhibitors;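 further: plate controls were enzyme without inhibitor for no effect and buffer without enzyme for full effect; nearly all actives have a fitted effect of over 40% in size; top concentration of the series not given in the record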
# Target sequence (P25779 123-467 limits assumed): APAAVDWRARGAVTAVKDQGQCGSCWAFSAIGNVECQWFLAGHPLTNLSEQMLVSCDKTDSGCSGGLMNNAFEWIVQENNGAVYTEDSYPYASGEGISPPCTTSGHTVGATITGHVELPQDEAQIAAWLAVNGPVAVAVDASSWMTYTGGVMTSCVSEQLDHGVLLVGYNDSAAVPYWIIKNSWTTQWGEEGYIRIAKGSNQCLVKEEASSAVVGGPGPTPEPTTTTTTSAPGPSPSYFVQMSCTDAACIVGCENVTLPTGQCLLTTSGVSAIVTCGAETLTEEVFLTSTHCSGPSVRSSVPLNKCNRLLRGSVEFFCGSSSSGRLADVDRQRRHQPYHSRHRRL
#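 Purified cruzain at 1.5 nM, pre-incubated 15 min with compound at room temperature in 100 mM sodium acetate pH 5.5, 5 mM DTT, 0.00005% Triton X-100. Reaction started with 2 uM Z-FR-AMC; AMC fluorescence increase over 60 s gives rate.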
# NS1 function inh = influenza NS1 inhibition; Potency, µM (series often up to 46.1 µM), for inactives: at the top dose activity, positive = more growth; hit rate 0.4% among 270,000; S. cerevisiae slowed by influenza A NS1, growth recovery by OD600; active means well fitted rising curve with a large enough effect; inconclusive means small, poorly fitted or top-dose-only effect; inactive means no such curve, though single readings can be large or run the other way; further: nearly all actives have a fitted effect of over 50% in size
#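 Recovery from NS1-induced slow growth read by OD600 in budding yeast switched to galactose assay medium (pH 6.0, -URA) at 1:100 dilution. Compound 23 nl per well; the matching strain lacking NS1 serves as control.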
# MARV entry inh = Marburg virus entry inhibition | Marburg virus pseudotyped entry inhibition, cell reporter; control for the full effect not named in the record; about a third of the inactives were read at about 46 µM | hit rate 1.8% among 300,000 | Potency, µM (highest dose often 37.8 µM), without a hit: at the highest dose activity change, negative = inhibition, usual class: inhibitors; active = well fitted inhibition curve with a large enough effect; inconclusive = small, poorly fitted or top-dose-only effect, or effect the other way; inactive = flat fitted curve, though single readings scatter; tested in HEK293 cells; about a fifth of its hits are not listed in these tables; further: on the % scale 0 is the no-effect control and ±100 the full control effect; luciferase read-out
# Cruzain inh Det = cruzain (T. cruzi) inhibition with detergent; Potency, µM, inactives show max response, negative = inhibition, actives largely listed as inhibitors; hit rate 0.43% among 200,000; P25779; purified cruzain, Z-FR-AMC fluorescence, 0.01% Triton; AID 1478;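 further: plate controls were neutral wells for no effect and buffer without enzyme for full effect; nearly all actives have a fitted effect of over 40% in size; top concentration of the series not given in the record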
#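 Compounds were screened in titration against cruzain (1.5 nM) with 0.01% Triton X-100 to counter colloidal aggregation. Activity was the AMC fluorescence increase over 60 s after adding 2 uM Z-FR-AMC at pH 5.5.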
# SARS PLpro yeast = blocks SARS-CoV papain-like protease in a yeast assay | S. cerevisiae expressing SARS-CoV PLpro, growth rescue; control for the full effect not named in the record | Potency, µM (titrated, usually from 32.9 µM), inactives show top-dose activity, positive = growth rescue | hit rate 0.19% among 330,000 | AID 485353; active means well fitted rising curve with a large enough effect; inconclusive means small, poorly fitted or top-dose-only effect; inactive means no such curve, though single readings can be large or run the other way; further: 0% is about no effect; nearly all actives have a fitted effect of over 55% in size; growth read by luminescence after 48 h
# Starred values were filed as active, the others as inactive; ? = inconclusive; . = not tested or not shown; & = joins results of further samples; ! = repeats disagree; [ ] = another dose, or the depositor's remark. Unless noted, the call rests on the fitted dose curve; in most records, active means well fitted curve in the direction sought with a large enough effect; inconclusive means small, poorly fitted or top-dose-only effect, or another doubt; inactive means no such curve, though single readings can be large; an effect the other way counts as inactive or inconclusive. Potency means the concentration at half of the fitted maximal effect. Compounds as they come; about 4.7% have a hit in one of these screens.
SMILES,Lassa entry inh,2A StopGo,RE007 growth inh,Cruzain noTriton,NS1 function inh,MARV entry inh,Cruzain inh Det,SARS PLpro yeast
Cc1nn(CC(=O)Nc2ccc3c(c2)oc2ccccc23)c(=O)c2ccccc12,?,-8%,15%,?,1%,-7%,0.5%,1%
O=C(COC(=O)CNC(=O)c1ccc(Cl)cc1Cl)NCC1CCCO1 (centres undefined),15%,19%,6%,.,.,4%,.,-3%
CC(=O)c1cc(NC(=O)c2ccccc2)c(=O)oc1/C=C/N(C)C,4%,-11%,-2%,1%,6%,3%,-7.9%,1%
CCOc1ccc(NC(=O)CSc2ncnc3c2sc2ccccc23)cc1,-8%[46.1 µM],-12%&5%,18%,25µM*!,-3%,2%&2%,0.8%&-1.5%,8%
COc1ccc(OCc2nnc(SCC(=O)O)n2N)cc1,-9%,0%,-1%,-8%,-9%,?,0.3%,-3%
NC1=NC(=O)C(CC(=O)Nc2ccc3c(c2)OCO3)S1 (centres undefined),9%,3%,1%,.,22%,-8%[46.1 µM],.,0%
COc1ccc(/C=C/C(=O)NC(=S)NNC(=O)[C@H]2C[C@@H]2c2ccccc2)cc1OC,?,-14%,10%,.,0%,8%[46.1 µM],.,2%
COc1ccccc1NC(=O)c1ccccc1Oc1ccccc1,.,-26%,-20%,.,-15%,.,.,-1%
Cc1ccc(NC(=O)CN(C)C(=O)C2CCC2)cc1,1%,-16%,-6%,.,.,14%,.,.
COc1cc(OC)c(OC)cc1/C=C1\Oc2cc(OS(C)(=O)=O)ccc2C1=O,-1%[46.1 µM],-11%,27%,.,2%,?,.,0%
COc1ccccc1NS(=O)(=O)c1ccc(N/N=C/C=C/c2ccccc2[N+](=O)[O-])c([N+](=O)[O-])c1,20%,6%,7%,.,3%,-18%,.,-1%
N#Cc1cccc(C(c2nnnn2C2CCCC2)N2CCC(Cc3ccccc3)CC2)c1 (centres undefined),-27%,-3%,4%,-10%,14%,?,-3.2%,-15%
COP(=O)(OC)C(NC(=O)C(C)(C)C)=C(Cl)Cl,7%,-15%,-11%,6%,-4%,-1%,-3.5%,1%
NC(=O)C1CCN(C(=O)c2cccc(NC(=O)c3nsc4ccccc34)c2)CC1,-10%[46.1 µM],26%,.,25%,.,.,2.6%,.
CSc1ccc(/C=N/NC(=O)CNc2ccc3ccccc3c2)cc1,?,3%,3%,?,-9%,-16%,-7.8%,-69%
O=C(O)c1cc2cc(S(=O)(=O)O)ccc2cc1O,5%,0%,-6%,.,.,?,.,.
COc1ccccc1/C=N/NC(=O)c1cccc(OC(F)(F)C(F)F)c1,-11%,20%,-9%,0%,-8%,-4%,-9.5%,-10%
Cc1nnc(SCc2ccccc2F)n1NCc1cccs1,11%,0%,6%,-3%,-17%,20%,-2.3%,0%
Cc1ccc(S(=O)(=O)NCC(=O)NCC(=O)OCC(=O)NC(=O)NC(C)(C)C)cc1C,-13%,-12%,3%,.,.,6%[14.2 µM],.,4%
CC1CCCC(C)N1C(=O)c1cc(F)c(F)cc1Cl (centres undefined),-16%,-25%,-4%,5%,4%,?,1.4%,4%
C/C(N)=C(/C#N)C(=O)CSc1nnc(-c2ccccc2)n1C,11%,32%[activator],4%,.,-2%,?,.,0%
COC(=O)c1ccc(NC(=O)CNC(=O)C2CCCCC2)c(C)c1,0%,22%,?,-7%,3%,-9%,2.7%,3%
Cc1ccc(Nc2c(-c3ccco3)nc3ccc(C)cn23)cc1,-19%[46.1 µM],-11%,.,-4%,.,0%[46.1 µM],-6.9%,.
Cc1cc(C)n(CCC(=O)Nc2ccc3c(c2)OCCO3)n1,.,12%,10%,.,4%,.,.,18%
Cc1ccc(NS(=O)(=O)c2ccc3c(c2)c(=O)n(C)c(=O)n3C)cc1F,-1%,10%,-15%,5%,2%,-8%,-0.5%,-3%
COc1cc(CN2CCSCC2)cc(OC)c1OC,15%,-26%,12%,-3%,-1%,1%,3.5%,4%
CCc1ccc(Nc2ncc3c(n2)CC(C)(C)CC3=O)cc1,?,29%,2%,.,-2%,?,.,-1%
COP(=S)(OC)SCN1C(=O)c2ccccc2C1=O,.,-5%,11%[18.4 µM],-4%,-1%&-48%,.,-1.0%,-3%
O=C(O)C1CCCN1S(=O)(=O)c1ccc2[nH]c(=O)c(=O)[nH]c2c1 (centres undefined),-5%,18%,0%,-3%,-6%,11%,2.7%,11%
O=C(c1cccs1)N1CCC(c2ccccc2)C1 (centres undefined),?,59%[activator],-9%,-13%,-17%,?,-2.5%,-4%
CSc1ccc(CNC(=O)Cc2ccc(NC(=O)C3=C(C)OCCS3)cc2)cc1,.,52%[activator],-5%,.,6%,.,.,-3%
NC(=O)COC(=O)c1ccccc1Nc1ccc(SC(F)F)cc1,?,11%,39%,10%,-37%,?,-13%,-34%
Cc1nnc(NC(=O)C2=COCCO2)s1,21%,17%,6%,.,.,-1%[46.1 µM],.,-3%
Cc1cc[n+](-c2nc3ccccc3nc2[N-]S(=O)(=O)c2ccccc2)cc1,.,-17%,0%,-15%,8%,10%,0.9%,18%
O=C(CSc1cccs1)Nc1ccc(Cl)cc1,-1%,53%[activator],10%,.,-2%,-28%[46.1 µM],.,-4%
Cc1ccc2c(c1)C(c1ccncc1)=NNC(c1ccc(C(C)C)cc1)=N2,.,.,.,-21%,7%,8%,2.3%,11%
Cc1nn(-c2ccccc2)c(C)c1/C=N/n1c(-c2ccncc2)n[nH]c1=S,?,-9%,32%,.,7%,?,.,0%
CC(=O)N1CC(C)Sc2ccc(S(=O)(=O)NC3CCCCC3)cc21 (centres undefined),.,-14%,-10%,.,2%,.,.,-4%
CCN(C(=O)COC(=O)/C(C#N)=C/c1ccc(N(C)C)cc1)C1CCS(=O)(=O)C1 (centres undefined),14%,96%[activator],-1%,.,.,15%,.,12%
CCOc1ccc(NC(=O)Cn2c(=O)n(-c3ccccc3)c(=O)c3ccc(C(=O)NCc4ccc5c(c4)OCO5)cc32)cc1,-12%[46.1 µM],-6%,.,?,.,?,-1.6%,.
COCCn1cc(C(=O)NCc2ccco2)c2c3ccccc3n(C)c2c1=O,13%[46.1 µM],-11%,4%,.,.,21%[46.1 µM],.,2%
COc1cc(/C=N\N=C2/SC(CC(=O)O)C(=O)N2c2ccc(O)cc2)ccc1O (centres undefined),-25%,.,7%,0%,12%,1%,-9.6%,10%
COc1cccc(C2C(=O)c3ccccc3C2=O)c1,16%,14%,1%,.,6%,13%,.,0%
O=C(/C=C/c1ccc2c(c1)OCO2)c1c(O)n(CCc2ccccc2)c(=O)[nH]c1=O,?,13µM*,-7%,.,1%,-11%[46.1 µM],.,-1%
Cc1nn(CC(=O)NCc2ccco2)c(C)c1[N+](=O)[O-],-7%[46.1 µM],-6%,10%,.,4%,?,.,0%
CC1=CC2=NC(=O)CC(C)(C(=O)N(CC(=O)NC3CCCC3)c3cc(C)cc(C)c3)N2C=C1 (centres undefined),-5%,13%,0%,.,-1%,1%,.,-1%
COc1ccc(NC(=O)c2ccc(F)cc2)cc1S(=O)(=O)Nc1cc(C)ccc1Br,?,36%[activator],2%,16%,20%,?,-4.5%,23%
O=C(CCC(=O)c1cccs1)NCc1ccc(Cl)cc1,21%,-11%,-17%,3%,10%,-8%,-0.6%,0%
OC(CNCCc1ccc(C(F)(F)F)cc1)COC(c1ccccc1)c1ccccc1 (centres undefined),.,-25%,15%,.,6%,.,.,-4%
CC(=O)C1=C(O)C(=O)N(c2ccc(O)cc2)C1c1ccc(C)cc1 (centres undefined),-1%[46.1 µM],-9%,12%,.,12%,6%[46.1 µM],.,5%

# Continuation:
SMILES,Lassa entry inh,2A StopGo,RE007 growth inh,Cruzain noTriton,NS1 function inh,MARV entry inh,Cruzain inh Det,SARS PLpro yeast
O=C(NCCc1csc(-c2ccc(Cl)cc2)n1)c1ccco1,-22%[46.1 µM],?,-15%,4%,-85%,.,-13%,-12%
COc1cc(NC(=O)CSc2nc(-c3ccc(C)cc3)nc3c2Cc2ccccc2O3)cc(OC)c1,3%[46.1 µM],2%,.,-3%,.,15%[46.1 µM],-1.6%,.
CCCCn1c(SCn2nnc3ccccc3c2=O)nc2cc(S(N)(=O)=O)ccc21,-4%,.,-7%,-14%,1%,1%,-11%,-4%
O=C(CCn1nc(-c2ccc(Cl)cc2)ccc1=O)N1CCN(c2ccc(F)cc2)CC1,.,-16%,10%,.,8%,.,.,-3%
COCCCNC(=S)NNC(=O)c1csc2ccccc12,11%,27%,?,1%,2%,28%,1.0%,-18%
COC(=O)c1cccc(C(=O)N2CCCC(CNC(=O)c3ccccc3Cl)C2)c1 (centres undefined),.,0%,3%,.,-3%,.,.,3%
Cc1nnsc1C(=O)N1CCN(c2ccc(C#N)cn2)CC1,-2%,9%,15%,.,4%,-2%[46.1 µM],.,-4%
CNS(=O)(=O)c1ccc(NC(=O)Nc2cccc(F)c2)cc1,-1%[46.1 µM],-1%,-9%,.,1%,-12%,.,0%
CCOC(=O)C1CCCN(C(=S)Nc2cccc(Cl)c2C)C1 (centres undefined),-12%,-12%,-1%,-19%,2%,?,-3.3%,?
Cn1nc(C(=O)NCc2ccc(Cl)cc2)c2c1-c1ccccc1SC2,1%[46.1 µM],-1%,.,3%,.,-2%[46.1 µM],-5.2%,.
O=C(O)c1n[nH]nc1-c1ccccc1,3%,-14%,13%,.,6%,-2%[46.1 µM],.,0%
Cc1ccc(C)c(NC(=O)Cn2nnc(C(=O)NCc3cccs3)c2N)c1,-24%,8%,-6%,?,6%,?,3.5%,0%
COc1ccccc1/C=C/CN1CCSCC1,1%,8%,1%,.,-9%,-9%,.,-2%
COc1ccccc1CNC(=O)c1ccc2c(=O)n(CCCN3CCCC3=O)c(=S)[nH]c2c1,-12%,?,1%,.,.,-8%[46.1 µM],.,-3%

# Compound activity (PubChem BioAssay)
